MbtI inh: blocks the Mycobacterium tuberculosis siderophore enzyme MbtI; hit rate 0.89% among 100,000; inhibition, %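 (about 17 µg/mL by stock and volumes)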; purified MbtI enzyme, fluorescence intensity read-out; P9WFX0; AID 493033;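 active = above 50% in both replicates, above 80% if mildly self-fluorescent; inactive = the rest, strongly fluorescent compounds included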;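 also: 0% = mean of negative and 100% = mean of positive controls; one replicate is shown; some compounds called inactive have numbers as strong as hits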
Target sequence (P9WFX0 whole entry, looked up): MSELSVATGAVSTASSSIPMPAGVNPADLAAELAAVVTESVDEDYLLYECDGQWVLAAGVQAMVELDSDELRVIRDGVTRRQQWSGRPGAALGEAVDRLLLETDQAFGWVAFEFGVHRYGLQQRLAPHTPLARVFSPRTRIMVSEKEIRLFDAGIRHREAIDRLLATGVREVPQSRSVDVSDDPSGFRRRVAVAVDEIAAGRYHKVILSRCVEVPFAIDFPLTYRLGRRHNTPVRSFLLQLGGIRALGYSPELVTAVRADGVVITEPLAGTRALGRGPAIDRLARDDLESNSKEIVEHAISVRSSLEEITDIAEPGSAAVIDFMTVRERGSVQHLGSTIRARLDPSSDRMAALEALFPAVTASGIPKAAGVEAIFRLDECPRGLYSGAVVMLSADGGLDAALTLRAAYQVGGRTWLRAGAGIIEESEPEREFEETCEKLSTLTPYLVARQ
Polio RdRp inh: poliovirus RNA polymerase inhibition. poliovirus polymerase elongation, fluorescence polarization; active compounds read low. % elongation, % (compound at 16.7 µg/mL). hit rate 0.66% among 150,000; in the data active = % elongation below about 90%; also: some results filed as inactive read as strong as hits
MenB inh: inhibitors of Mycobacterium tuberculosis MenB enzyme. MenB enzyme assay, absorbance read-out; some hits fall short of the stated cut. P9WNP5. hit rate 0.43% among 100,000. inhibition, %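 (about 12 µg/mL by stock and volumes)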;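 active = mean of two replicates above 30%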;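 also: 0% = no compound and 100% = wells with inactive enzyme; the first replicate is given; strong numbers were not always called active; inactives centre near -10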
Target sequence (P9WNP5 whole entry, looked up): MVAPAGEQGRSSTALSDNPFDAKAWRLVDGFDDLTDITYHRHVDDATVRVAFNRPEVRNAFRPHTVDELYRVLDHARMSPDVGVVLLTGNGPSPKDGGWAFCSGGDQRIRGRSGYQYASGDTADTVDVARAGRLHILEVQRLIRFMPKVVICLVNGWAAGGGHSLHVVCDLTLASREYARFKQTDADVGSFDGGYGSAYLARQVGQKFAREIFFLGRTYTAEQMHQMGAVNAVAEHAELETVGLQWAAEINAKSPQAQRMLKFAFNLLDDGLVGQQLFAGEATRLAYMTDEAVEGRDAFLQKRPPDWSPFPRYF
Polio RdRp inh intensity: also measured in Polio RdRp inh; calls as there; % elongation; measured here: total intensity read-out; formula for this scale not given here;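 total fluorescence in place of polarization; lower means less elongation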
Active calls of the source: *; & = joins results of further samples.

Results for CC(=O)N(c1ccccc1)c1nc(/C=C/C(=O)O)cs1 ?
MbtI inh: -2.7; Polio RdRp inh: 104.0; MenB inh: 8.1; Polio RdRp inh intensity: 107.0

Results for CC1(C)CC(=O)c2cc3c(N)c(C(=O)NCc4ccco4)sc3nc2C1 ?
MbtI inh: 11.1; Polio RdRp inh: 101.0; MenB inh: -16.8; Polio RdRp inh intensity: 102.0

What do the screens show for `Cn1cccc1C(=O)OCc1cc(Cl)cc2c1OCOC2`?
MbtI inh: -18.0; Polio RdRp inh: 104.0; MenB inh: -22.4; Polio RdRp inh intensity: 112.0

Results for N#Cc1c(Cl)ncc2c1N(Cc1ccccc1)CC2 ?
MbtI inh: -24.6; Polio RdRp inh: 98.0; MenB inh: 18.3; Polio RdRp inh intensity: 100.0

What do the screens show for `O=C(O)C1C2C=CC(C2)C1C(=O)NCCO` (stereo not drawn)?
MbtI inh: -21.8; Polio RdRp inh: 105.0; MenB inh: -39.8; Polio RdRp inh intensity: 100.0

How did COC(=O)c1cc(COC(=O)/C=C/c2cnc3ccccc3n2)oc1C do in these assays?
MbtI inh: -24.7; Polio RdRp inh: 112.0; MenB inh: -12.1; Polio RdRp inh intensity: 129.0

What do the screens show for `CSc1ccc(S(=O)(=O)NCCC2=CCCCC2)cc1`?
MbtI inh: -8.1; Polio RdRp inh: 102.0; MenB inh: -7.4; Polio RdRp inh intensity: 104.0

How did Cc1cc(Nc2ccc(O)cc2)c2ccccc2n1 do in these assays?
Polio RdRp inh: 94.0; MenB inh: 6.8; Polio RdRp inh intensity: 85.0

How did Cc1cccc(-c2ocnc2C(=O)Nc2ccccc2CN(C)C2CCCCC2)c1 do in these assays?
MbtI inh: 9.8; Polio RdRp inh: 100.0; MenB inh: 25.9; Polio RdRp inh intensity: 102.0

What do the screens show for `CC(C)(C)NC(=O)Nc1ccccc1C(N)=O`?
MbtI inh: -19.1; Polio RdRp inh: 100.0; MenB inh: -0.2; Polio RdRp inh intensity: 103.0

How did Cc1nccn1CC1CCc2c(c3ccccc3n2C)C1=O (stereo not drawn) do in these assays?
MbtI inh: 4.6; Polio RdRp inh: 105.0&98.0; MenB inh: -24.2&-5.4; Polio RdRp inh intensity: 93.0&103.0

How did CCC(Oc1ccccc1)C(=O)Nc1sc2c(c1C(N)=O)CCCC2 (stereo not drawn) do in these assays?
Polio RdRp inh: 106.0; MenB inh: -13.5; Polio RdRp inh intensity: 105.0

Results for CC(C)N=c1cc2n(-c3ccc(Cl)cc3)c3ccccc3nc-2cc1Nc1ccc(Cl)cc1 ?
MbtI inh: -13.3; Polio RdRp inh: 102.0; MenB inh: 3.2; Polio RdRp inh intensity: 102.0

What do the screens show for `C(=NCc1ccccc1)c1cn(-c2ccccc2)nc1-c1cccnc1`?
MbtI inh: 1.2; Polio RdRp inh: 99.0; Polio RdRp inh intensity: 104.0

Results for Cc1cccc(NC(=O)c2ccccc2-c2nc(-c3ccccc3)no2)c1 ?
MbtI inh: -7.3; Polio RdRp inh: 101.0; MenB inh: -30.7; Polio RdRp inh intensity: 101.0

Results for O=S(=O)(c1cccc(S(=O)(=O)N2CCN(c3ncccn3)CC2)c1)N1CCCCC1 ?
MbtI inh: -0.7; Polio RdRp inh: 99.0; MenB inh: 5.7; Polio RdRp inh intensity: 101.0

What do the screens show for `COc1ccc(-c2cc3cc(OC)c(OC)cc3c(Cc3ccccc3)n2)cc1`?
MbtI inh: 105.7; Polio RdRp inh: 104.0; MenB inh: -21.1; Polio RdRp inh intensity: 108.0

Results for O=C(c1ccc2c(c1)OCO2)N(c1ccc(Br)cc1)C1C=CS(=O)(=O)C1 (stereo not drawn) ?
MbtI inh: 1.2; Polio RdRp inh: 100.0; MenB inh: -2.1; Polio RdRp inh intensity: 101.0

What do the screens show for `COC(=O)c1cc2c(ccn2C)n1Cc1cccc(OC)c1`?
MbtI inh: 45.6; Polio RdRp inh: 97.0; MenB inh: -92.0; Polio RdRp inh intensity: 110.0

Results for CS(=O)(=O)c1ccc(NC(=O)COc2ccc(I)cc2)cc1 ?
MbtI inh: -17.0; Polio RdRp inh: 104.0; MenB inh: -11.8; Polio RdRp inh intensity: 104.0

Results for Cn1c(=O)cc(SCC(=O)N2CCC3(CC2)OCCO3)c2ccccc21 ?
MbtI inh: -4.0; Polio RdRp inh: 99.0; MenB inh: -36.0; Polio RdRp inh intensity: 104.0

How did COc1ccc(-c2sc(C(=O)O)c(C)c2C#N)cc1 do in these assays?
MbtI inh: 98.8; Polio RdRp inh: 99.0; MenB inh: -56.4; Polio RdRp inh intensity: 96.0

How did COc1cccc(C(=O)OCC(=O)N2CCc3ccccc3C2)c1 do in these assays?
MbtI inh: 8.4; Polio RdRp inh: 99.0; Polio RdRp inh intensity: 101.0

What do the screens show for `N#Cc1nc(-c2cccc(O)c2)oc1N`?
MbtI inh: 99.9; Polio RdRp inh: 99.0; MenB inh: -2.1; Polio RdRp inh intensity: 98.0

Results for CSC1=N/C(=C\C=C\c2cccs2)C(=O)S1 ?
MbtI inh: 21.9; Polio RdRp inh: 110.0; MenB inh: -111.7; Polio RdRp inh intensity: 115.0

How did O=C(O)CN1C(=O)Nc2ccc(Br)cc2C1c1ccccc1 (stereo not drawn) do in these assays?
MbtI inh: 8.6; Polio RdRp inh: 102.0; MenB inh: -23.8; Polio RdRp inh intensity: 100.0

What do the screens show for `CCOc1ccc(NC(=O)CCCn2nc(CC)n3c(cc4occc43)c2=O)cc1`?
MbtI inh: 7.3; Polio RdRp inh: 105.0; MenB inh: 2.1; Polio RdRp inh intensity: 108.0

Results for CC1=[N+](CCC#N)CC(C)(C)C1 ?
MbtI inh: -0.8; Polio RdRp inh: 101.0; MenB inh: 28.1; Polio RdRp inh intensity: 100.0

How did O=S(=O)(c1ccc2[nH]c3c(c2c1)CCCC3)N1CCCCC1 do in these assays?
MbtI inh: -10.1; Polio RdRp inh: 102.0; MenB inh: -9.2; Polio RdRp inh intensity: 107.0

How did Cc1cc(C)cc(-n2nnnc2SCC(=O)Nc2cccc(NC(=O)c3ccco3)c2)c1 do in these assays?
MbtI inh: -1.8; Polio RdRp inh: 101.0; MenB inh: 17.1; Polio RdRp inh intensity: 102.0

How did COCc1cc(C)nc(SCC(=O)NC23CC4CC(CC(C4)C2)C3)c1C#N do in these assays?
MbtI inh: -2.5; Polio RdRp inh: 99.0; MenB inh: 1.9; Polio RdRp inh intensity: 101.0

Results for COC(CNC(=O)c1cc2c(=O)n(C)c3ccccc3c2n1C)OC ?
MbtI inh: 21.8; Polio RdRp inh: 100.0; MenB inh: 3.3; Polio RdRp inh intensity: 96.0

How did N#Cc1c(-c2cccs2)cc(-c2cccnc2)nc1N do in these assays?
MbtI inh: 116.7; Polio RdRp inh: 101.0; MenB inh: 10.1; Polio RdRp inh intensity: 102.0

What do the screens show for `CCNC(=S)N1CCN=C1Nc1nc(C)cc(C)n1`?
MbtI inh: -208.7; Polio RdRp inh: 101.0; MenB inh: -14.4; Polio RdRp inh intensity: 103.0

What do the screens show for `CCOC(=O)NC(=O)c1cn(Nc2ccccc2)c(=O)[nH]c1=O`?
MbtI inh: -7.2; Polio RdRp inh: 104.0; MenB inh: 0.1; Polio RdRp inh intensity: 104.0

Results for COC(=O)C1C(=O)C(C(=O)/C=C/c2ccco2)C(=O)CC1(C)C (stereo not drawn) ?
MbtI inh: -17.0; Polio RdRp inh: 98.0; MenB inh: -73.6; Polio RdRp inh intensity: 103.0

How did CC(SCc1ccccc1)C(=O)N1CC(=O)Nc2ccccc21 (stereo not drawn) do in these assays?
MbtI inh: -33.1; Polio RdRp inh: 101.0; MenB inh: -7.8; Polio RdRp inh intensity: 101.0

What do the screens show for `O=C(Nc1ccc(C(=O)N2CCCCC2)cc1)c1ccc(=O)[nH]c1`?
MbtI inh: -1.8; Polio RdRp inh: 100.0; MenB inh: -21.4; Polio RdRp inh intensity: 104.0

Results for CC1(C)CC(=O)C(C=NCC2CCCO2)=C(O)C1 (stereo not drawn) ?
MbtI inh: 1.9; Polio RdRp inh: 102.0; MenB inh: -6.4; Polio RdRp inh intensity: 99.0

What do the screens show for `NC(=O)c1ccc(NC(=O)COC(=O)c2ccc(-n3cnnn3)cc2)cc1`?
MbtI inh: 8.8; Polio RdRp inh: 105.0; MenB inh: -30.2; Polio RdRp inh intensity: 108.0

Of the compounds above, four have an aryl methoxy group:
What do the screens show for `COc1ccc(-c2cc3cc(OC)c(OC)cc3c(Cc3ccccc3)n2)cc1`?
MbtI inh: 105.7; Polio RdRp inh: 104.0; MenB inh: -21.1; Polio RdRp inh intensity: 108.0

What do the screens show for `COC(=O)c1cc2c(ccn2C)n1Cc1cccc(OC)c1`?
MbtI inh: 45.6; Polio RdRp inh: 97.0; MenB inh: -92.0; Polio RdRp inh intensity: 110.0

How did COc1ccc(-c2sc(C(=O)O)c(C)c2C#N)cc1 do in these assays?
MbtI inh: 98.8; Polio RdRp inh: 99.0; MenB inh: -56.4; Polio RdRp inh intensity: 96.0

How did COc1cccc(C(=O)OCC(=O)N2CCc3ccccc3C2)c1 do in these assays?
MbtI inh: 8.4; Polio RdRp inh: 99.0; Polio RdRp inh intensity: 101.0

The results go on:
Results for O=C1CCCc2cc(S(=O)(=O)N3CCCC(C(=O)NC4CCCC4)C3)ccc2N1 (stereo not drawn) ?
MbtI inh: -1.2; Polio RdRp inh: 101.0; MenB inh: -37.5; Polio RdRp inh intensity: 102.0

How did Nc1ccccc1OCCN1CCOCC1 do in these assays?
MbtI inh: -2.0; Polio RdRp inh: 100.0; MenB inh: 2.0; Polio RdRp inh intensity: 102.0

How did CCCCNC(=O)c1cccc(NC2=NC3CS(=O)(=O)CC3S2)c1 (stereo not drawn) do in these assays?
MbtI inh: 1.2; Polio RdRp inh: 99.0; MenB inh: -8.3; Polio RdRp inh intensity: 104.0

How did CCCNc1ncccc1C(N)=O do in these assays?
MbtI inh: 88.7; Polio RdRp inh: 101.0; MenB inh: 34.8*; Polio RdRp inh intensity: 100.0

How did O=c1[nH]cccc1Br do in these assays?
MbtI inh: 6.0; Polio RdRp inh: 101.0; MenB inh: 2.5; Polio RdRp inh intensity: 104.0

Results for CC12COC3(C(=O)N4CCCCC4)CC1CCC32C (stereo not drawn) ?
MbtI inh: 0.3; Polio RdRp inh: 101.0; Polio RdRp inh intensity: 103.0

What do the screens show for `CC(C)COC(=O)c1ccc2c(c1)C1C=CCC1C(c1ccc(Cl)cc1)N2` (stereo not drawn)?
MbtI inh: -8.2; Polio RdRp inh: 103.0; MenB inh: -5.7; Polio RdRp inh intensity: 119.0

Results for O=C(c1cc2ccccc2o1)N1CCCc2ccccc21 ?
Polio RdRp inh: 103.0; MenB inh: -17.1; Polio RdRp inh intensity: 108.0

What do the screens show for `O=C(Cn1c(=O)oc2ccccc21)NCc1ccco1`?
MbtI inh: -5.7; Polio RdRp inh: 101.0; MenB inh: -3.0; Polio RdRp inh intensity: 105.0

What do the screens show for `O/N=C(\c1ccccc1)c1cc2ccccc2o1`?
MbtI inh: 4.5; Polio RdRp inh: 100.0; MenB inh: -11.3; Polio RdRp inh intensity: 104.0

What do the screens show for `COc1ccc(-c2cc(C3CC3)nc(SCC(=O)O)c2C#N)cc1`?
MbtI inh: -23.4; Polio RdRp inh: 100.0; MenB inh: -13.2; Polio RdRp inh intensity: 101.0

Results for CC(C)C(NC(=O)c1ccccc1)C(=O)Nc1nc2ccc(Cl)cc2s1 (stereo not drawn) ?
MbtI inh: 20.2; Polio RdRp inh: 102.0; Polio RdRp inh intensity: 109.0

What do the screens show for `O=C(COc1cccc(-n2cnnn2)c1)N1CCOCC1`?
MbtI inh: -3.4; Polio RdRp inh: 104.0; MenB inh: -1.2; Polio RdRp inh intensity: 102.0

Results for O=C(CSc1nc(=O)n(CCN2CCOCC2)c2c1CCCC2)Nc1cccc(C(F)(F)F)c1 ?
MbtI inh: -1.8; Polio RdRp inh: 98.0; MenB inh: -3.8; Polio RdRp inh intensity: 106.0

What do the screens show for `Cc1cc(OCC(O)CNC(C)(C)C)ccc1Cl` (stereo not drawn)?
MbtI inh: 2.5; Polio RdRp inh: 102.0; MenB inh: -24.7; Polio RdRp inh intensity: 97.0

Results for O=C1CCCc2c1cc(C(=O)N1CCOCC1)c(=O)n2-c1ccccc1 ?
MbtI inh: 17.7; Polio RdRp inh: 102.0; MenB inh: 25.8; Polio RdRp inh intensity: 103.0

Results for FC(F)(F)c1nc2ccccc2nc1Cl ?
MbtI inh: 6.8; Polio RdRp inh: 101.0; MenB inh: -36.4; Polio RdRp inh intensity: 101.0

Results for Cc1cc(C(=O)CN2CCCC2c2cccs2)c(C)n1-c1c(C)n(C)n(-c2ccccc2)c1=O (stereo not drawn) ?
MbtI inh: -1.4; Polio RdRp inh: 105.0; MenB inh: -14.1; Polio RdRp inh intensity: 109.0

Results for O=C(NCc1ccccn1)c1cc(-c2ccccc2O)no1 ?
MbtI inh: 42.8; Polio RdRp inh: 102.0; MenB inh: -46.8; Polio RdRp inh intensity: 100.0

What do the screens show for `O=C(CC(c1ccccc1)c1ccccc1)c1nnc(-c2ccccc2)o1`?
MbtI inh: -27.9; Polio RdRp inh: 103.0; MenB inh: -6.8; Polio RdRp inh intensity: 105.0

How did CCS(=O)(=O)c1ccc2oc(SCC(=O)Nc3ccccc3C(F)(F)F)nc2c1 do in these assays?
MbtI inh: -43.1; Polio RdRp inh: 108.0; MenB inh: 4.7; Polio RdRp inh intensity: 113.0

Results for COC(=O)c1c(C)[nH]c(C(=O)COn2nnc3ccc(S(=O)(=O)N(C)C)cc32)c1C ?
MbtI inh: -1.7; Polio RdRp inh: 99.0; MenB inh: -4.1; Polio RdRp inh intensity: 92.0
